High-throughput results (PubChem BioAssay)
Cruzain noTriton – inhibitors of Trypanosoma cruzi cruzain without detergent; P25779; purified cruzain, Z-FR-AMC fluorescence, no detergent; Potency, µM, without a hit: max response, negative = inhibition, usual class: inhibitors; 200,000 compounds, 2.3% hits; AID 1476;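 note: plate controls were enzyme without inhibitor for no effect and buffer without enzyme for full effect; nearly all actives have a fitted effect of over 40% in size; top concentration of the series not given in the record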
Target sequence (P25779 123-467 limits assumed): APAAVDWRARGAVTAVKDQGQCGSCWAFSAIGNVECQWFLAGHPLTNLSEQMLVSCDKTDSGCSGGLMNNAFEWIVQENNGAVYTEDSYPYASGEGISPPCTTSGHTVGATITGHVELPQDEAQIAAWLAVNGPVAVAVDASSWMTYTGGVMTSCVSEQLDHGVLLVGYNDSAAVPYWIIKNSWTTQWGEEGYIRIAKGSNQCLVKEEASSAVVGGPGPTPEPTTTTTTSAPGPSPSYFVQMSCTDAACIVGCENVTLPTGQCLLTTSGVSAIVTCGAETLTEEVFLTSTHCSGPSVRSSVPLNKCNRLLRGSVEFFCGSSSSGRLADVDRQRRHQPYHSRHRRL
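Purified cruzain at 1.5 nM, pre-incubated 15 min with compound at room temperature in 100 mM sodium acetate pH 5.5, 5 mM DTT, 0.00005% Triton X-100. Reaction started with 2 uM Z-FR-AMC; AMC fluorescence increase over 60 s gives rate.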
NS1 function inh – influenza NS1 inhibition; S. cerevisiae slowed by influenza A NS1, growth recovery by OD600; Potency, µM (doses to about 46.1 µM), inactives show top-dose activity, positive = more growth; 270,000 compounds, 0.4% hits; AID 2326; active means well fitted rising curve with a large enough effect; inconclusive means small, poorly fitted or top-dose-only effect; inactive means no such curve, though single readings can be large or run the other way; note: nearly all actives have a fitted effect of over 50% in size
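In this qHTS, NS1 from influenza A is expressed in budding yeast, where it slows growth. Cells are switched from glucose to 2% galactose medium (pH 6.0, -URA), treated with compound, and growth recovery is read at OD600.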
Lassa entry inh – Lassa virus entry inhibition | Lassa virus pseudotype entry inhibition, cell reporter; control for the full effect not named in the record | Potency, µM (series often up to 37.9 µM), for inactives: at the highest dose activity change, negative = inhibition, most hits filed as inhibitors | 300,000 compounds, 1.2% hits | AID 540256; active means well fitted inhibition curve with a large enough effect; inconclusive means small, poorly fitted or top-dose-only effect, or effect the other way; inactive means flat fitted curve, though single readings scatter; tested in HEK293 cells; note: % is set by controls: 0 for no effect and ±100 for the full control effect; nearly all actives have a fitted effect of over 50% in size; luciferase read-out
Marburg entry inh – blocks Marburg virus binding to or entry into cells; Potency, µM (series often up to 37.8 µM), for inactives: top-dose activity change, negative = inhibition, actives largely listed as inhibitors; 300,000 compounds, 1.8% hits; Marburg virus pseudotyped entry inhibition, cell reporter; control for the full effect not named in the record; about a third of the inactives were read at about 46 µM; active = well fitted inhibition curve with a large enough effect; inconclusive = small, poorly fitted or top-dose-only effect, or effect the other way; inactive = flat fitted curve, though single readings scatter; tested in HEK293 cells; about a fifth of its hits are not listed in these tables; note: % is set by controls: 0 for no effect and ±100 for the full control effect; luciferase read-out
StopGo reporter – FMDV 2A StopGo reporter, luciferase signal; Potency, µM (doses to about 57.9 µM), for the others: at the top dose signal change, negative = less light; human cells with a luciferase reporter of 2A StopGo recoding; control for the full effect not named in the record; 410,000 compounds, 1.2% hits; active = well fitted falling curve with a large enough effect; inconclusive = small, poorly fitted or top-dose-only effect; inactive = no such curve, though single readings can be large or run the other way; tested in HEK293T cells; note: % is set by controls: 0 for no effect and ±100 for the full control effect; nearly all actives have a fitted effect of over 45% in size; luciferase light after 4 h
SARS PLP yeast – blocks SARS-CoV papain-like protease in a yeast assay. S. cerevisiae expressing SARS-CoV PLpro, growth rescue; control for the full effect not named in the record. Potency, µM (series often up to 32.9 µM), inactives show at the top dose activity, positive = growth rescue. 330,000 compounds, 0.19% hits. AID 485353; active means well fitted rising curve with a large enough effect; inconclusive means small, poorly fitted or top-dose-only effect; inactive means no such curve, though single readings can be large or run the other way; note: 0% is about no effect; nearly all actives have a fitted effect of over 55% in size; growth read by luminescence after 48 h
RE007 growth inh – less growth of the S. pombe RE007 Vpr strain | S. pombe RE007 Vpr strain, BacTiter-Glo ATP luminescence, 24 h; control for the full effect not named in the record | Potency, µM (series often up to 92.2 µM), without a hit: top-dose activity change, negative = less growth | 360,000 compounds, 0.21% hits | AID 651644; active = well fitted falling curve with a large enough effect; inconclusive = small, poorly fitted or top-dose-only effect; inactive = no such curve, though single readings can be large or run the other way;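 note: % is set by controls: 0 for no effect and ±100 for the full control effect; nearly all actives have a fitted effect of over 50% in size; the assay follows cell death caused by Vpr and the record does not say whether a fall means rescue or toxicity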
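Fission yeast RE007 carrying one integrated HIV-1 vpr copy, seeded at OD 0.01 in PMG+AL medium with 23 nL pinned compound. Grown 24 h at 30 degrees; viability read by BacTiter-Glo luminescence after 5 min.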
Cruzain inh Det – cruzain (T. cruzi) inhibition with detergent. purified cruzain, Z-FR-AMC fluorescence, 0.01% Triton. Potency, µM, inactives show max response, negative = inhibition, hits mostly inhibitors. P25779. 200,000 compounds, 0.43% hits;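 note: plate controls were neutral wells for no effect and buffer without enzyme for full effect; nearly all actives have a fitted effect of over 40% in size; top concentration of the series not given in the record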
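Detergent-containing run (0.01% Triton X-100) in acetate buffer pH 5.5 with 5 mM DTT: enzyme at 1.5 nM final, 15 min compound preincubation at room temperature, then 2 uM Z-FR-AMC substrate. Activity taken as 60 s fluorescence increase at 360/450 nm.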
The depositor's hits bear a star; u = inconclusive; x = not tested or not shown; & = joins results of further samples; [ ] = another dose, or the depositor's remark. Unless noted, calls come from the whole dose curve; as a rule, active = well fitted curve in the direction sought with a large enough effect; inconclusive = small, poorly fitted or top-dose-only effect, or another doubt; inactive = no such curve, though single readings can be large; an effect the other way counts as inactive or inconclusive. Potency is the fitted concentration of half-maximal effect.

SMILES	Cruzain noTriton	NS1 function inh	Lassa entry inh	Marburg entry inh	StopGo reporter	SARS PLP yeast	RE007 growth inh	Cruzain inh Det
Cc1ccc(OCC(=O)Nc2sc3c(c2C(N)=O)CCCC3)c(C(C)(C)C)c1	2%	x	3%[46.1 µM]	x	-7%	x	x	-3.8%
O=C(NCCc1ccc2c(c1)OCCO2)c1cccc(F)c1	-4%	-3%	2%	-18%	11%	2%	12%	-2.2%
O=C(COC(=O)c1c2c(nc3ccccc13)CCCC2)c1ccc(Br)s1	u	-3%	-1%	u	0%	-14%	17%	-3.6%
CCN(c1ccccc1)S(=O)(=O)c1cc2c(cc1C)NC(=O)CO2	x	-5%	x	x	-29%	-16%	1%	x
O=C(CCOc1ccccc1)Nc1ccnn1C1CCN(Cc2ccccc2)CC1	x	0%	-2%	-26%	-5%	0%	3%	x
COc1ccc(C(CC(=O)Nc2cc(Cl)c(OC)cc2OC)N2Cc3ccccc3C2=O)cc1 (stereo not given)	7%	x	-25%[46.1 µM]	x	56%[activator]	x	x	-7.5%
CCOC(=O)c1cc2c(C)n(-c3ccc(OCC)cc3)c(C)c2cc(C(=O)OCC)c1=O	0%	6%	-7%	-8%	-12%	6%	x	-5.3%
CC(C)Cc1nccs1	0%	x	x	x	-25%	3%	-10%	3.1%
CCOc1ccccc1C(=O)N1CCN(c2ccc(C(F)(F)F)cn2)CC1	x	x	-28%	u	u	0%	11%	x
Cc1ccc(C)n1-c1ccc(N2CCOCC2)cc1	-6%	u	-6%	5%	-15%	0%	-12%	5.6%
CCN1CCN(CC(O)COc2ccc3c(C)cc(=O)oc3c2)CC1 (stereo not given)	x	x	0%	0%[46.1 µM]	-9%	-2%	-22%	x
COc1ccc(C(=O)NCCc2nnc(SCC(=O)Nc3ccccc3F)n2C)cc1	x	-1%	8%	7%[46.1 µM]	41%[activator]	-2%	-3%	x
CC(=O)c1ccc(S(=O)(=O)Nc2ccc(-n3c(C)nc4ccccc4c3=O)cc2)cc1	x	x	6%	-22%	5%	5%	4%	x
CCn1c(CNC(=O)C23CC4CC(CC(C4)C2)C3)nnc1SC	x	x	u	0%	-18%	-5%	5%	x
CCOc1cccc(=O)c2c(C)n(CC3CCCO3)c(C)c12 (stereo not given)	8%	u	-21%	u	1%	6%	13%	-8.2%
Cc1ccccc1Cn1c(C)nc2ccc([N+](=O)[O-])cc2c1=O	x	-16%	-12%[46.1 µM]	7%[46.1 µM]	-16%	-5%	-15%	x
Cc1ccc(NS(=O)(=O)c2ccc(OCC(=O)N3CCOCC3)cc2)cc1	5%	-1%	2%	3%	x	-4%	7%	7.3%
C[C@@H](C(=O)N[C@H](C(=O)O)c1ccccc1)n1nnc2ccccc2c1=O	13%	4%	10%	-1%	5%	11%	4%	-1.0%
Nc1ccc(NC(=O)c2ccccc2)c2c1C(=O)c1ccccc1C2=O	2%	7%	-21%	-1%	-16%	3%	0%	3.9%
Cc1ccc(OCc2nnc(SCC(=O)C(C)(C)C)n2Cc2ccco2)cc1	13%	-56%	-4%	-3%	0%	8%	9%	-7.3%
Cc1ccccc1C(=NC(=O)c1ccccc1)c1ccccc1	6%	-51%	u	-2%	-13%	-25%	22%	-2.7%
CC(=O)Nc1ccc2c3c(cccc13)C(=O)N(c1ccccc1)C2=O	x	8%	-16%[46.1 µM]	10%[46.1 µM]	19%	-1%	-3%	x
CCCCOc1ccccc1C(=O)N(Cc1ccco1)C1CCS(=O)(=O)C1 (stereo not given)	x	-4%	x	x	-12%	5%	21%	x
COCCN(C(=O)c1ccc(COc2ccccc2)o1)c1c(N)n(CC(C)C)c(=O)[nH]c1=O	x	x	15%	14%	-5%	-3%	-13%	x
CCCCOc1ccc(S(=O)(=O)Nc2cccnc2)cc1	-5%	-10%	-13%	u	x	-29%	4%	1.0%
SMILES	Cruzain noTriton	NS1 function inh	Lassa entry inh	Marburg entry inh	StopGo reporter	SARS PLP yeast	RE007 growth inh	Cruzain inh Det
COc1ccc(C(=O)N[C@H](C(=O)Nc2sccc2C(N)=O)C(C)C)cc1	x	0%	-4%[46.1 µM]	-5%[46.1 µM]	-9%	1%	4%	x
CC(C)c1ccc(CN(C(=O)C2COc3ccccc3O2)C2CCS(=O)(=O)C2)cc1 (stereo not given)	u	-106%	-16%	u	-26%	-21%	16%	-4.2%
Cc1ccc(NC(=S)NC(=O)c2c(-c3ccccc3Cl)noc2C)cc1	-2%	9%	0%	22%	-15%	-12%	-3%	2.6%
Cc1csc2nc(CNC(=O)C3CCCCC3)cn12	u	1%	x	x	22%	-1%	12%	-1.9%
Cc1ccc(OS(=O)Nc2cccc3nccnc23)cc1 (stereo not given)	12%	0%	12%	u	x	-6%	1%	-4.5%
COc1ccc(-c2nnc(SCC(=O)O)n2Cc2ccccc2)cc1	x	-26%	-6%[46.1 µM]	3%[46.1 µM]	-5%	9%	-1%	x
CCOC(=O)c1cnc(SCc2ccc(Cl)c(Cl)c2)nc1N1CC1	x	x	u	-21%	u	x	-5%	x
COc1ccc(C(=O)NCCSCc2cccc(Cl)c2)cc1OC	x	-24%	x	x	-23%	0%	-26%	x
COc1cccc(C(=O)NCCS(=O)(=O)NCCCc2ccccc2)c1	x	x	-6%	u	-7%	1%	-4%	x
CSc1nnc2c(n1)OC(c1cccn1C)N(C(C)=O)c1ccccc1-2 (stereo not given)	-3%	-7%	-9%	-2%	-2%	5%	-10%	1.8%
Cc1cccc(NC(=O)c2cccc(N3C(=O)C4CCC(C)CC4C3=O)c2)c1C (stereo not given)	x	3%	9%	11%	u	0%	-12%	x
N/C(=N\OC(=O)c1ccc2ccccc2c1)c1ccccc1Cl	x	-113%	x	x	34%[activator]	-20%	-15%	x
CC(C)COc1ccc(C(=O)Nc2ccc(S(=O)(=O)Nc3ncccn3)cc2)cc1	-8%	x	11%[46.1 µM]	x	16%	x	x	-0.3%
O=C(O)c1c[nH]c2ccc([N+](=O)[O-])cc2c1=O	x	x	0%[46.1 µM]	12%[46.1 µM]	10%	x	-3%	x
COc1ccc(-c2cc(C(F)(F)F)n3nc(C(=O)NCC45CC6CC(CC(C6)C4)C5)cc3n2)cc1	u	x	-16%[46.1 µM]	1%[46.1 µM]	-16%	x	x	u
CC(=O)n1cc([C@H]2C=C(C(=O)Nc3ccccc3)O[C@@H](OCc3ccc(CO)cc3)C2)c2ccccc21	x	u	x	x	u	-1%	-14%	x
COC(=O)c1nn(-c2ccc(Cl)cc2)c(=O)cc1Sc1ccccn1	23%	-3%	3%	14%	2%	0%	-1%	5.2%
COc1ccc(-c2nc(CS(=O)CC(=O)NCCC3=CCCCC3)c(C)o2)cc1 (stereo not given)	u	-42%	x	x	0%	5%	-6%	-6.8%
O=C(CCC1CCCCC1)Nc1nccs1	x	0%	x	x	23%	8%	5%	x
COc1ccc(S(=O)(=O)N2CCCCCC2)cc1NC(=O)c1c2c(nc3ccccc13)CCN(Cc1ccccc1)C2	u	23%	-14%&-24%	u	24%	26%	3%	-4.0%
O=C(CCCc1ccccc1)Nc1cccc(C(=O)O)c1	x	8%	u	2.5µM*	14µM*	0%	-1%	x
O=NN1CCN(c2ccncc2S(=O)(=O)N2CCCCC2)CC1	x	0%	8%	7%	-10%	5%	6%	x
CCCN(C(=O)c1nn(-c2ccc(OC)c(Cl)c2)c(=O)c2c1c1ccccc1n2C)c1ccccc1F	-4%	x	23%[46.1 µM]	-26%[46.1 µM]	-15%	x	x	-1.3%
CC(C(=O)N1CCCCC1)n1ncn2cccc2c1=O (stereo not given)	1%	-10%	0%	1%	-8%	-5%	-7%	0.0%
CCOc1nc(-c2ccc(Cl)cc2Cl)ccc1C#N	3%	1%	-3%	-29%	-20%	4%	-5%	-2.2%
SMILES	Cruzain noTriton	NS1 function inh	Lassa entry inh	Marburg entry inh	StopGo reporter	SARS PLP yeast	RE007 growth inh	Cruzain inh Det
CCOc1ccc(S(=O)(=O)N(CCO)CCO)cc1-c1nc2c(C(C)(C)C)nn(C)c2c(=O)[nH]1	u	-8%	u	-13%	0%	8%	0%	2.6%
COc1cc(C(=O)NCC(c2ccco2)S(=O)(=O)c2cccs2)cc(OC)c1OC (stereo not given)	7%	x	-20%[46.1 µM]	x	-24%	x	x	-0.5%
C=CCN(CC=C)Cc1c[nH]c2ccccc12	0%	10%	-1%	22%	x	-23%	-18%	3.1%
CCNc1ccc(C(=O)OCC(=O)NCc2ccccc2Cl)cc1[N+](=O)[O-]	u	6%	4%	-10%	-20%	-2%	2%	-5.1%
Cn1nc(-c2ccc(Cl)cc2)c2cc(C(=O)NCc3ccco3)sc21	-12%	-23%	x	x	u	0%	-6%	-9.4%
Cn1c(=O)c2c(ncn2Cc2ccc(Cl)cc2)n(C)c1=O	11%	3%	u	u	u	-1%	2%	-1.3%
O=C1NCCCC1C(=O)N/N=C/c1cccc(O)c1 (stereo not given)	-5%	-26%	-3%	3%	13%	3%	6%	0.1%
Cc1nc2ccccc2nc(C)c1=NOCC(=O)N(c1ccccc1)C(C)C	x	-15%	u	u	6%	-1%	-8%	x
CC(C)(C)NC(=O)N1c2ccccc2Sc2ccccc21	x	5%	x	x	-33%	2%	14%	x
Cc1ccn2cc(C(=O)NCc3ccco3)nc2c1	x	x	u	u	39%[activator]	1%	4%	x
COc1ccc(CN(C)S(=O)(=O)c2nnc(NC(=O)c3ccccc3)s2)cc1OC	x	1%	u	14%[46.1 µM]	-19%	1%	-6%	x
C/C(Cl)=C\Cn1c(Nc2ccc(C)cc2)nc2c1c(=O)n(C)c(=O)n2C	4%	-3%	-2%	-6%	-12%	0%	-14%	-1.9%
Cc1cccc(N2CCN(C(=O)c3ccc(NS(=O)(=O)c4ccc5[nH]c(=O)[nH]c5c4)cc3)CC2)c1C	x	u	-24%	-15%	12%	2%	14%	x
Cc1cc(F)c(F)c(C(=O)NC2CC2)c1Cl	4%	-3%	1%	11%	x	0%	14%	-2.1%
COc1ccc(-c2ccc(NS(=O)(=O)c3cc([N+](=O)[O-])ccc3C)cc2)nn1	x	-1%	14%[46.1 µM]	u	11%	-4%	11%	x
